Screening results as filed in PubChem.
A1 apoptosis 2 = A1 inhibitors via caspase activation, primary screen, cell-based, luminescence, HTS, two replicates | MEF A1-2A-BIM cells, caspase-Glo luminescence, 3 h; percent of clofoctol response, DMSO zero | caspase activation, % (test concentration not listed) | 24,000 tested, under 10 active; in the data active means caspase activation above about 5.9%;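 further: wells of about 30 µL received 50 nL stock; the first replicate is given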
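Material: mouse embryonic fibroblasts co-expressing A1 and BIM (A1-2A-BIM), primed for A1 dependence / Quantity: 2500 cells/well / Buffer or medium: RPMI-1640 growth medium with 10% FBS / Doses: 50 nL compound per well, pinned / Schedule: 3 h compound exposure at 37 °C / Signal: Caspase-Glo luminescence (DEVD substrate) / Measure: Caspase-3/7 activation, seen as rise in luminescence signal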
* marks the source's active call; other numbers are inactive results; & = joins results of further samples. The list is partial; rates above refer to the full screens.

SMILES	A1 apoptosis 2
C[C@@H]1CN([C@@H](C)CO)C(=O)Cc2cc(N(C)C)ccc2O[C@H]1CN(C)Cc1ccc2c(c1)OCO2	0.1
COCC1CC(c2ccccc2)OC(c2ccc(NC(=O)CCCCCCC(=O)O)cc2)O1 (stereo unspecified)	0.5
COc1ccc(S(=O)(=O)Nc2cccc3c2O[C@@H](CN(C)Cc2ccc(-c4ccccc4)cc2)[C@@H](C)CN([C@@H](C)CO)C3=O)cc1	0.1
C[C@@H]1CN([C@@H](C)CO)C(=O)Cc2cc(NC(=O)Cc3ccccc3)ccc2O[C@H]1CN(C)C(=O)Nc1ccccc1	1.2
COc1ccc(NC(=O)Nc2ccc3c(c2)C(=O)N([C@@H](C)CO)C[C@@H](C)[C@@H](CN(C)C(=O)NC(C)C)OCCCC[C@@H](C)O3)cc1	0.3
C[C@H](CO)N1C[C@H](C)[C@H](CN(C)C(=O)Nc2ccc(C(F)(F)F)cc2)Oc2ccc(NS(=O)(=O)c3cn(C)cn3)cc2C1=O	1.5
COc1ccc(S(=O)(=O)Nc2ccc3c(c2)C(=O)N([C@@H](C)CO)C[C@@H](C)[C@@H](CN(C)C(=O)NC2CCCCC2)OCCCC[C@H](C)O3)cc1	-0.2
C[C@H](CO)N1C[C@H](C)[C@H](CN(C)Cc2ccncc2)Oc2ccc(NS(C)(=O)=O)cc2CC1=O	-1.4
C[C@H]1CN([C@@H](C)CO)C(=O)c2cc(NC(=O)Cn3cnnn3)ccc2O[C@@H]1CN(C)S(C)(=O)=O	0.8
C[C@@H]1CCCCO[C@@H](CN(C)C(=O)Nc2ccc(C(F)(F)F)cc2)[C@@H](C)CN([C@@H](C)CO)C(=O)c2cc(NC(=O)C3CCCCC3)ccc2O1	-1.3
C[C@H](CO)N1C[C@H](C)[C@@H](CN(C)Cc2ccncc2)Oc2c(NS(=O)(=O)c3cn(C)cn3)cccc2C1=O	-1.2
CC(C)NC(=O)N(C)C[C@@H]1Oc2ccc(NC(=O)Nc3cccc4ccccc34)cc2C(=O)N([C@@H](C)CO)C[C@H]1C	-0.8
Cc1noc(C)c1NC(=O)Nc1ccc2c(c1)CC(=O)N([C@@H](C)CO)C[C@H](C)[C@@H](CN(C)S(=O)(=O)c1ccccc1)O2	-0.3
COc1ccc(NC(=O)Nc2ccc3c(c2)C(=O)N([C@@H](C)CO)C[C@H](C)[C@@H](CN(C)C(=O)CCCN(C)C)OCCCC[C@H](C)O3)cc1	-0.2
C[C@@H]1CN([C@H](C)CO)C(=O)c2cc(NC(=O)CCC(F)(F)F)ccc2O[C@@H]1CN(C)S(=O)(=O)c1ccccc1	-0.1
C[C@@H]1CN([C@@H](C)CO)C(=O)c2cc(N(C)C)ccc2O[C@@H]1CN(C)C(=O)Nc1ccc(F)cc1	-0.6
C[C@@H]1CN([C@@H](C)CO)C(=O)c2cc(NC(=O)Nc3ccc4c(c3)OCO4)ccc2O[C@@H]1CN(C)Cc1ccc(C(=O)O)cc1	-1.7
C[C@@H]1CN([C@H](C)CO)C(=O)c2cccc(NC(=O)Nc3ccccc3)c2O[C@@H]1CN(C)Cc1ccc(C(F)(F)F)cc1	-0.1
C[C@@H]1CN([C@H](C)CO)C(=O)c2cc(NC(=O)CCCN(C)C)ccc2O[C@@H](C)CCCCO[C@H]1CN(C)CC1CCCCC1	-0.7
CC(C)NC(=O)N(C)C[C@H]1Oc2ccc(NC(=O)C3CC3)cc2C(=O)N([C@@H](C)CO)C[C@@H]1C	0.7
C[C@@H]1CCCCO[C@H](CN(C)CC2CC2)[C@@H](C)CN([C@H](C)CO)C(=O)c2cc(NS(=O)(=O)c3ccccc3)ccc2O1	0.9
C[C@@H]1CN([C@@H](C)CO)C(=O)Cc2cc(NC(=O)CCN3CCOCC3)ccc2O[C@@H]1CN(C)Cc1ccncc1	0.0
C[C@@H]1CN([C@@H](C)CO)C(=O)Cc2cc(NC(=O)C3CC3)ccc2O[C@H]1CN(C)Cc1ccc(C(=O)Nc2ccccc2N)cc1	-0.7
CC(C)NC(=O)N(C)C[C@H]1Oc2c(NC(=O)Nc3ccc(F)cc3)cccc2C(=O)N([C@H](C)CO)C[C@@H]1C	0.5
C[C@H]1CN([C@@H](C)CO)C(=O)Cc2cc(NC(=O)CCCN(C)C)ccc2O[C@@H]1CN(C)S(=O)(=O)c1cccs1	0.3

Four neighbouring entries from above, quoted:
SMILES	A1 apoptosis 2
C[C@@H]1CN([C@@H](C)CO)C(=O)Cc2cc(N(C)C)ccc2O[C@H]1CN(C)Cc1ccc2c(c1)OCO2	0.1
COCC1CC(c2ccccc2)OC(c2ccc(NC(=O)CCCCCCC(=O)O)cc2)O1 (stereo unspecified)	0.5
COc1ccc(S(=O)(=O)Nc2cccc3c2O[C@@H](CN(C)Cc2ccc(-c4ccccc4)cc2)[C@@H](C)CN([C@@H](C)CO)C3=O)cc1	0.1
C[C@@H]1CN([C@@H](C)CO)C(=O)Cc2cc(NC(=O)Cc3ccccc3)ccc2O[C@H]1CN(C)C(=O)Nc1ccccc1	1.2

Random excerpt: 3 records from the list, in no set order.
SMILES	A1 apoptosis 2
C[C@@H]1CN([C@H](C)CO)C(=O)c2cc(NC(=O)CCCN(C)C)ccc2O[C@@H](C)CCCCO[C@H]1CN(C)CC1CCCCC1	-0.7
C[C@H]1CN([C@@H](C)CO)C(=O)Cc2cc(NC(=O)CCCN(C)C)ccc2O[C@@H]1CN(C)S(=O)(=O)c1cccs1	0.3
C[C@H]1CN([C@@H](C)CO)C(=O)c2cc(NC(=O)Cn3cnnn3)ccc2O[C@@H]1CN(C)S(C)(=O)=O	0.8

The listing continues:
SMILES	A1 apoptosis 2
COc1ccc(NC(=O)Nc2ccc3c(c2)C(=O)N([C@@H](C)CO)C[C@H](C)[C@@H](CN(C)Cc2ccc(Cl)c(Cl)c2)O3)cc1	0.0
CC(C)NC(=O)Nc1ccc2c(c1)C(=O)N([C@@H](C)CO)C[C@@H](C)[C@@H](CN(C)C(=O)CCCN(C)C)OCCCC[C@H](C)O2	1.3
CC(C)NC(=O)Nc1ccc2c(c1)CC(=O)N([C@H](C)CO)C[C@@H](C)[C@H](CN(C)C)O2	0.5
COc1ccc(S(=O)(=O)Nc2ccc3c(c2)CC(=O)N([C@@H](C)CO)C[C@H](C)[C@H](CN(C)S(=O)(=O)c2cccs2)O3)cc1	-0.3
O=C(CCCCCCC(=O)Nc1ccccc1O)N/N=C/c1cc(F)ccc1O	-0.4
C[C@H]1CN([C@@H](C)CO)C(=O)Cc2cc(NC(=O)Nc3ccc(F)cc3)ccc2O[C@@H]1CN(C)C	0.8
C[C@@H]1CN([C@@H](C)CO)C(=O)c2cccc(N(C)C)c2O[C@@H]1CN(C)S(=O)(=O)c1cn(C)cn1	0.1
Cc1ccc(S(=O)(=O)N(C)C[C@H]2OCc3cn(nn3)CCCC(=O)N([C@@H](C)CO)C[C@H]2C)cc1	-0.6
CC(C)NC(=O)N(C)C[C@H]1Oc2ccc(NC(=O)CCC(F)(F)F)cc2C(=O)N([C@H](C)CO)C[C@@H]1C	-1.3
C[C@@H]1CN([C@H](C)CO)C(=O)c2cc(NC(=O)Nc3cccc4ccccc34)ccc2O[C@H]1CN(C)C(=O)Nc1ccccc1	0.0
CNC[C@@H]1Oc2ccc(NC(=O)Nc3cccc4ccccc34)cc2C(=O)N([C@@H](C)CO)C[C@@H]1C	-0.4
C[C@@H]1CN([C@@H](C)CO)C(=O)c2cc(N(C)C)ccc2O[C@@H](C)CCCCO[C@H]1CN(C)S(=O)(=O)c1ccccc1	-0.4
Cc1noc(C)c1NC(=O)Nc1ccc2c(c1)CC(=O)N([C@H](C)CO)C[C@H](C)[C@H](CN(C)Cc1ccncc1)O2	1.9
C[C@@H]1CN([C@@H](C)CO)C(=O)c2cccc(NS(=O)(=O)c3ccc(Cl)cc3)c2O[C@H]1CN(C)Cc1ccc(Cl)c(Cl)c1	-1.3
C[C@@H]1CN([C@@H](C)CO)C(=O)c2cccc(NC(=O)c3nc4ccccc4s3)c2O[C@H]1CN(C)C(=O)Nc1ccc(C(F)(F)F)cc1	0.8
CC(C)NC(=O)Nc1cccc2c1O[C@H](CN(C)Cc1ccc(Cl)c(Cl)c1)[C@H](C)CN([C@@H](C)CO)C2=O	-0.4
CC(C)NC(=O)Nc1ccc2c(c1)C(=O)N([C@@H](C)CO)C[C@H](C)[C@@H](CN(C)S(=O)(=O)c1cccs1)OCCCC[C@H](C)O2	0.0
C[C@@H]1CCCCO[C@@H](CN(C)Cc2ccc(C(=O)O)cc2)[C@@H](C)CN([C@@H](C)CO)C(=O)c2cc(NS(C)(=O)=O)ccc2O1	-0.6
C[C@@H]1CN([C@@H](C)CO)C(=O)c2cc(NS(=O)(=O)c3cn(C)cn3)ccc2O[C@@H]1CN(C)S(=O)(=O)c1cn(C)cn1	0.0
COc1ccc(CN(C)C[C@@H]2Oc3ccc(NC(=O)Nc4ccc(C(F)(F)F)cc4)cc3C(=O)N([C@H](C)CO)C[C@@H]2C)cc1	-1.2
O=C(N/N=C/c1ccc(OCCO)cc1)c1ccccc1O	-6.3
C=CCN1C(=O)[C@@]2(O[C@@H](CCO)[C@H]([Si](C)(C)c3ccc(OC)cc3)[C@H]2C)c2cc(NC(C)=O)ccc21	-0.4
C[C@H]1CN([C@@H](C)CO)C(=O)c2cc(NS(=O)(=O)c3cccs3)ccc2O[C@H]1CN(C)Cc1ccc(-c2ccccc2)cc1	-0.3
C[C@H]1CN([C@@H](C)CO)C(=O)c2cc(NC(=O)Cc3ccccc3)ccc2O[C@H]1CN(C)Cc1ccc(C(=O)Nc2ccccc2N)cc1	-0.3
Cc1noc(C)c1NC(=O)N(C)C[C@@H]1Oc2ccc(NC(=O)NC3CCCCC3)cc2C(=O)N([C@H](C)CO)C[C@@H]1C	-0.3
Next part:
SMILES	A1 apoptosis 2
C[C@@H]1CN([C@@H](C)CO)C(=O)c2cc(NC(=O)c3ccncc3)ccc2O[C@@H]1CN(C)C(=O)NC1CCCCC1	-1.2
COc1ccc(S(=O)(=O)N(C)C[C@@H]2Oc3ccc(NS(=O)(=O)c4ccc(Cl)cc4)cc3CC(=O)N([C@H](C)CO)C[C@@H]2C)cc1	0.4
C[C@@H]1CCCCO[C@@H](CN(C)Cc2ccc(C(=O)O)cc2)[C@H](C)CN([C@H](C)CO)C(=O)c2cc(NC(=O)c3ccncc3)ccc2O1	-0.9
C[C@H](CO)N1C[C@H](C)[C@H](CN(C)C(=O)Nc2ccccc2)Oc2ncc(-c3cccc(F)c3)cc2C1=O	-0.4
C[C@@H]1CN([C@H](C)CO)C(=O)Cc2cc(NC(=O)CCC(F)(F)F)ccc2O[C@@H]1CN(C)Cc1ccc(Cl)c(Cl)c1	0.5
C[C@H](CO)N1C[C@H](C)[C@@H](CN(C)S(=O)(=O)c2ccc(Cl)cc2)Oc2ccc(NC(=O)NC3CCCCC3)cc2CC1=O	-0.7
C[C@@H]1CN([C@H](C)CO)C(=O)CCCn2nncc2CO[C@H]1CN(C)Cc1ccncc1	0.8
C[C@@H]1CCCCO[C@@H](CN(C)C(=O)Nc2ccc3c(c2)OCO3)[C@H](C)CN([C@H](C)CO)C(=O)c2cc(NC(=O)Nc3ccc(F)cc3)ccc2O1	0.6
C[C@H](CO)N1C[C@H](C)[C@@H](CN(C)CC2CC2)OCCCC[C@H](C)Oc2ccc(NC(=O)Nc3cccc4ccccc34)cc2C1=O	0.9
C[C@H](CO)N1C[C@H](C)[C@H](CN(C)S(=O)(=O)c2ccc(Cl)cc2)OCCCC[C@H](C)Oc2ccc(N(C)C)cc2C1=O	-0.8
COc1ccc(NC(=O)Nc2ccc3c(c2)CC(=O)N([C@H](C)CO)C[C@H](C)[C@H](CN(C)S(=O)(=O)c2cn(C)cn2)O3)cc1	2.0
C[C@]12CCC(=O)N1CCc1c2[nH]c2ccccc12	0.0&0.3
C[C@H](CO)N1C[C@H](C)[C@@H](CN(C)C(=O)Nc2ccccc2)Oc2ccc(N(C)C)cc2CC1=O	0.1
C[C@H](CO)N1C[C@H](C)[C@H](CN(C)C(=O)Nc2ccc(C(F)(F)F)cc2)OCc2cn(nn2)CCCC1=O	-0.2
C[C@H](CO)N1C[C@H](C)[C@@H](CN(C)Cc2ccc(C(F)(F)F)cc2)Oc2c(NS(=O)(=O)c3cn(C)cn3)cccc2C1=O	0.8
Cc1noc(C)c1NC(=O)Nc1cccc2c1O[C@H](CN(C)C(=O)Nc1c(C)noc1C)[C@H](C)CN([C@@H](C)CO)C2=O	1.0
C=CCNC(=O)[C@H]1[C@@H]2C(=O)O[C@@H](c3ccccc3)[C@@H](c3ccccc3)N2[C@@H](c2ccc(OCCO)cc2)[C@]12C(=O)Nc1ccc(C#Cc3ccc(OC)cc3)cc12	-0.9
C[C@H]1CN([C@@H](C)CO)C(=O)c2cccc(NS(=O)(=O)c3cn(C)cn3)c2O[C@H]1CN(C)Cc1ccc2c(c1)OCO2	0.8
CNC[C@@H]1OCCCC[C@H](C)Oc2ccc(NC(=O)Nc3ccc(C(F)(F)F)cc3)cc2C(=O)N([C@H](C)CO)C[C@@H]1C	-0.7
C[C@H](CO)N1C[C@H](C)[C@H](CN(C)S(=O)(=O)c2ccc(C#N)cc2)Oc2ncc(C#Cc3ccccc3)cc2C1=O	0.2
C[C@H]1CN([C@@H](C)CO)C(=O)Cc2cc(NS(C)(=O)=O)ccc2O[C@@H]1CN(C)Cc1ccc(C(=O)O)cc1	0.8
Cc1noc(C)c1NC(=O)Nc1ccc2c(c1)C(=O)N([C@H](C)CO)C[C@H](C)[C@@H](CN(C)S(=O)(=O)c1ccccc1)OCCCC[C@@H](C)O2	-0.1
